# GLA inh pH 4.5: inhibitors of human alpha-galactosidase A at pH 4.5 | activity change, negative = inhibition, % at 105 µM | P06280 | 230,000 tested, under 10 active | purified enzyme, 4-MU-alpha-Gal fluorescence, pH 4.5; inconclusive = small, poorly fitted or top-dose-only inhibition, or a rising curve; inactive = flat fitted curve, though single readings scatter; no compound was filed as active;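 also: 0% = full activity with enzyme and -100% = basal without enzyme; dose as in the result columns while the protocol names 77 µM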
# miR-21 FLuc: raises the signal of a miR-21 reporter. HeLa miR-21 FLuc reporter, luciferase, 48 h. Potency, µM (top dose mostly 38.3 µM), without a hit: top-dose reporter change, positive = more light. 340,000 tested, under 10 active. AID 2288; active = well fitted rising curve with a large enough effect; inconclusive = small, poorly fitted or top-dose-only effect; inactive = no such curve, though single readings can be large or run the other way;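 also: % of control where 0% means no effect; miR-21 action dims this reporter so a rising signal means less miR-21 action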
#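 HeLa cells stably expressing CMV-driven firefly luciferase with a downstream miR-21 binding sequence, endogenously expressing miR-21, were treated with titrations (up to about 40uM final) for 48 hours at 37 degree Celsius. Luciferase luminescence was read after lysis.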
# Rango dissoc inh: inhibition of RanGTP-driven Rango-importin beta dissociation. Biochemical FRET Rango-importin beta, RanGTP-induced dissociation. AID 540253. hit rate 0.071% among 340,000. Potency, µM (top dose mostly 46.1 µM), without a hit: at the top dose activity change, negative = inhibition; active means falling FRET ratio curve, often poorly fitted, with flat reads before Ran was added; inconclusive means other falling curves, or compound fluorescence or quenching; inactive means flat or rising ratio curve;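 also: potency is read from the fitted curve at half-maximal effect; % of control where 0% means no effect; nearly all actives have a fitted effect of over 45% in size; -100% = wells without RanGTP and RCC1; the record marks most hits as doubtful in a second field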
#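 Compounds preincubate 5 min with complex of recombinant Rango and importin beta in PBS with 1 mM DTT. Ran (0.6 uM) loaded with 2 mM GTP plus 0.2 uM RCC1 starts dissociation; FRET is recorded 45 min later.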
# Rango complex inh: prevents formation of the Rango-importin beta complex | Q14974 | Rango CFP/YFP FRET sensor + importin beta, 45 min | Potency, µM (series often up to 92.2 µM), for the others: at the highest dose inhibition of complex formation | hit rate 0.031% among 340,000 | AID 540263; active = rising FRET ratio curve, often small or poorly fitted; inconclusive = mostly compound fluorescence or quenching in the first reads; inactive = flat curves in all reads;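 also: potency is read from the fitted curve at half-maximal effect; 0% = DMSO wells and 100% = buffer wells lacking importin beta; nearly all actives have a fitted effect of over 15% in size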
# Target sequence (Q14974 whole entry, looked up): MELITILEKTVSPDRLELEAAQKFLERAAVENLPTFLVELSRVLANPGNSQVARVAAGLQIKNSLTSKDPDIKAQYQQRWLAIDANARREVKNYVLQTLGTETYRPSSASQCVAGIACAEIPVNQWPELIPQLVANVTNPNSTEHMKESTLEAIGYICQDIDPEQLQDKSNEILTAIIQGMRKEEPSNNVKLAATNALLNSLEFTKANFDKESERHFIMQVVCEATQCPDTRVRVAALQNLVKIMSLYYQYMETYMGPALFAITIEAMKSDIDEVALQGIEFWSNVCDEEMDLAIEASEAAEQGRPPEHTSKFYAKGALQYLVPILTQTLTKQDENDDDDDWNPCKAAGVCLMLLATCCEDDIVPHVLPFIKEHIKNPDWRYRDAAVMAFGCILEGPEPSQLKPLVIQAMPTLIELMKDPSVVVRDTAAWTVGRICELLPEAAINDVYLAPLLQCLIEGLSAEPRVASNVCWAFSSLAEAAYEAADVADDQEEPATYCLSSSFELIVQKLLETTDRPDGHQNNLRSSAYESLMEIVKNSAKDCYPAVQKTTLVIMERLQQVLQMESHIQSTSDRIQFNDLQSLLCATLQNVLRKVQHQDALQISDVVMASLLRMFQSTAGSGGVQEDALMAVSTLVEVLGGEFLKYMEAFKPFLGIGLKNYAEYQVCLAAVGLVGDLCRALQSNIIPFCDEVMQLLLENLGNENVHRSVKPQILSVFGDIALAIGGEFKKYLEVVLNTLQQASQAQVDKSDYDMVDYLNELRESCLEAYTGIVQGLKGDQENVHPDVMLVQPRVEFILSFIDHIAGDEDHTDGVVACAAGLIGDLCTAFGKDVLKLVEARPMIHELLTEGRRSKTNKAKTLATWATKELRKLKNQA
#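 Inhibition scored from the CFP 486 nm/YFP 530 nm FRET ratio 45 min after adding 0.125 microM importin beta to 50 nM Rango biosensor preincubated 5 min with compound (room temperature, PBS with DTT, Tween-20, BSA). No-importin wells as positive control.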
# The depositor's hits bear a star; u = inconclusive; x = no result given; & = joins results of further samples. A portion of the library; count on the stated rates, not on these rows.
structure	GLA inh pH 4.5	miR-21 FLuc	Rango dissoc inh	Rango complex inh
COC(=O)c1c2[n+](cc3cc(OC)c(OC)cc13)CCc1cc(OC)c(OC)cc1-2	x	x	-18%	3.0%
Cc1cc(C)cc(NC(=S)NC2CC3CCCC(C2)N3Cc2cccs2)c1 (configuration not stated)	2	18%	-4%	-3.0%
CCN(CC)c1ccc(CNCCc2ccc(F)cc2)cc1	u	4%	0%	4.5%
COc1cc2c(c(OC)c1OC)-c1ccc(O)c(=O)cc1[C@@H](N)CC2	x	x	0%	-1.7%
O=[N+]([O-])c1ccc(CN2CC=C(c3ccccc3)CC2)cc1	x	0%	-5%	0.7%
CCOC(=O)[C@@]1(C#N)C(c2ccc(Cl)c(Cl)c2)[C@H](C(N)=O)N2C=C(C(C)=O)C=C[C@H]21 (some centres not stated)	2	0%	u	u
CCn1ccnc1CN1CCCC(C(=O)c2ccc(SC)cc2)C1 (configuration not stated)	4	1%	14%	-0.3%
Cc1cc(OCC(=O)NC(Cc2ccc(Cl)cc2)C(=O)O)c2c3c(c(=O)oc2c1)CCC3 (configuration not stated)	x	-5%	-14%	6.1%
CC1CCCC(C2(O)C(=O)Nc3ccccc32)C1=O (configuration not stated)	-8	-3%	16%	5.5%
C=CCn1c(O)c(C(C)=NCC2CCCO2)c(=O)[nH]c1=O (configuration not stated)	1	2%	-7%	-0.9%
COCCCNC(=S)NCCCNc1nc2cc(C)cc(C)c2cc1C#N	6	-4%	u	u
CCC1CCC(C)N(N=O)C1 (configuration not stated)	x	x	13%	-1.1%
CCC[N+]12CCC(CC1)C(=C(c1ccccc1)c1ccccc1)C2	3	1%	24%	u
CCn1cc(C(=O)c2cccs2)c2ccccc21	6	-14%	-4%	-3.0%
Cc1cccc(OCC(=O)N2CCN(Cc3ccc4c(c3)OCO4)CC2)c1	-2	-2%	-1%	-0.4%
COC(=O)C1=C(c2ccc(F)cc2OCc2ccccc2)C[C@@H]2CC[C@H]1N2C(=O)NCc1ccc(Br)cc1	x	x	-12%	1.3%
Cn1c(=O)cc(OCCCC(=O)N2CCC3(CC2)OCCO3)c2ccccc21	7	-17%	-19%	-0.2%
O=c1cccc2n1CC1CC2CN(c2nc(N3CCCCC3)nc(N3CCCCC3)n2)C1 (configuration not stated)	-39	-2%	14%	1.0%
O=C(COc1ccccc1)N1CCN(Cc2c[nH]c3ccccc23)CC1	-6	3%	0%	0.2%
O=C1NC(c2cccnc2)Nc2sc3c(c21)CCCC3 (configuration not stated)	10	-47%	-4%	0.2%
Cc1ccc(-n2c(O)c(C=NCCN(C)C)c(=O)[nH]c2=O)cc1	-4	-1%	-4%	-0.7%
O=C(Nc1ccc(Cl)cc1C(=O)c1ccccc1)c1ccco1	-19	1%	2%	1.9%
Nc1ccc2c3c(cccc13)-c1ccccc1-2	x	x	u	u
O=c1[nH]c(=O)n(CCC2=CCCCC2)c(O)c1C=NCCN1CCNCC1	-2	-6%	-23%	u
CC1CC(C)CN(S(=O)(=O)c2ccc3c(c2)oc(=O)n3CC(=O)N(C)Cc2ccccc2)C1 (configuration not stated)	x	2%	39%	u
CC(C)(C)c1ccc(O)c(CN2CCN(c3ccccc3)CC2)c1	-7	-4%	2%	-0.7%
COC(=O)C1=C(c2ccc(F)cc2OCc2ccccc2)C[C@@H]2CC[C@H]1N2C(=O)NC1CCCCC1	x	x	-6%	-0.7%
N#CCN1CCN(c2ccc(C(F)(F)F)cc2)CC1	-4	-12%	-6%	0.2%
COC(=O)C1=C(c2ccc(-c3ccccc3)c(F)c2)C[C@@H]2CC[C@H]1N2C(=O)NCC1CC1	x	x	-18%	0.5%
CCCCn1c(C)c(C(=O)O)c2cc(OC)c3ccccc3c21	x	0%	7%	1.6%

# Whole records, quoted from the list:
# Entry for CCn1ccnc1CN1CCCC(C(=O)c2ccc(SC)cc2)C1 (configuration not stated) : GLA inh pH 4.5 = 4; miR-21 FLuc = 1%; Rango dissoc inh = 14%; Rango complex inh = -0.3%
# Entry for O=[N+]([O-])c1ccc(CN2CC=C(c3ccccc3)CC2)cc1 : GLA inh pH 4.5 = x; miR-21 FLuc = 0%; Rango dissoc inh = -5%; Rango complex inh = 0.7%

# Some of the entries above, set out differently:
# Below each compound – GLA inh pH 4.5, miR-21 FLuc, Rango dissoc inh, Rango complex inh
O=c1[nH]c(=O)n(CCC2=CCCCC2)c(O)c1C=NCCN1CCNCC1
    -2, -6%, -23%, u
COC(=O)C1=C(c2ccc(-c3ccccc3)c(F)c2)C[C@@H]2CC[C@H]1N2C(=O)NCC1CC1
    x, x, -18%, 0.5%

# Further records.
structure	GLA inh pH 4.5	miR-21 FLuc	Rango dissoc inh	Rango complex inh
CCCCOc1ccc(CN2CCN(CCO)CC2)cc1	5	-25%	0%	-4.0%
Cc1nc2cc([N+](=O)[O-])ccc2c(=O)n1-c1cccc(Br)c1	x	x	-2%	2.3%
COc1ccc(CN2CCNCC2)c(OC)c1OC	5	0%	-10%&17%	-0.2%&3.0%
C[C@]12CC[C@H](O)C[C@@H]1CC[C@@H]1[C@@H]2CC[C@]2(C)[C@@H](C(=O)O)C[C@@H]12	x	x	10%	-6.2%
CCCCn1c(O)c(C(C)=NC(Cc2c[nH]c3ccccc23)C(=O)OC)c(=O)[nH]c1=O (configuration not stated)	0	-3%	-2%	-0.9%
Cn1ccnc1P(=S)(c1nccn1C)c1nccn1C	4	-2%	-7%	11%
CC(Cc1ccccc1)N1C(=O)c2ccccc2C1=O (configuration not stated)	x	-16%	19%	-0.4%
Clc1cc(Cl)c(-c2cc(Cl)c(Cl)cc2Cl)cc1Cl	x	x	0%	-0.9%
CCCCn1c(O)c(/C=N/NC(=O)c2ccncc2)c(=O)[nH]c1=S	2	-2%	u	u
NNC(=O)c1nc[nH]c1C(=O)Nc1ccc(Cl)cc1C(=O)c1ccccc1	x	-2%	-9%	0.3%
CN1CCN(c2nc3ccccn3c(=O)c2C=C2C(=O)N(C)C(=O)N(C)C2=O)CC1	0	-8%	u	u
CC12CN3CC(C)(CN(C1)C31CCSCC1)C2=O	9	0%	-13%	2.3%
O=C1NC(=O)N(CCC2=CCCCC2)C(=O)/C1=C\c1cccs1	-13	28%	6%	2.3%
COC12CCC3(CC1C(C)(O)C(C)(C)C)[C@H]1Cc4ccc(OC5OC(C(=O)O)[C@@H](O)C(O)[C@H]5O)c5c4[C@@]3(CCN1CC1CC1)C2O5 (some centres not stated)	x	x	8%	1.9%
CCCC(C)C1(CC)C(=O)NC(=Nc2ccccc2OC)NC1=O (configuration not stated)	0	-3%	-15%	6.5%
O=C(C1CCC(=O)N1Cc1ccc(F)cc1)N1CCC2(CC1)OCCO2 (configuration not stated)	-6	-3%	-6%	-3.0%
CN(C)C(=O)Oc1c(Cl)cc(Cl)c2cccnc12	9	-8%	-7%	0.8%
CCN(CC)C(=O)Oc1ccc2ccccc2c1Cl	-7	-22%	-24%	2.3%
CCc1cc(=O)oc2cc(OC(=O)c3ccco3)ccc12	x	-1%	u	u
N#Cc1ccc(/C=C/C(=O)O)cc1	-3	-1%	-3%	-0.3%
Cc1nn(Cc2ccccc2)c(C)c1C(=O)NC1CCCc2ccccc21 (configuration not stated)	-5	0%	17%	8.5%
O=[N+]([O-])c1ccc(NC2CCCC2)c2ccncc12	x	-1%	1%	3.5%
CN(C)C(CNC(=O)Cc1c(Cl)cccc1Cl)c1ccccc1 (configuration not stated)	-1	-8%	-9%	3.1%
CC(=NCC1CCCO1)c1c(O)n(C)c(=O)n(C)c1=O (configuration not stated)	4	2%	-10%	-1.6%
c1ccc(-c2ccncc2)cc1	x	x	1%	-1.5%
COC(=O)C1(C(=O)O)Cc2cc([N+](=O)[O-])ccc2N2CCCC21 (configuration not stated)	x	-4%	-17%	1.8%
COC(=O)CSC1=NP(=S)(SCC(=O)OC)N2CCCC2=C1C#N (configuration not stated)	2	0%	-1%	u
CN1CCCC(C(=O)c2ccc(-c3ccccc3)cc2)C1 (configuration not stated)	x	-17%	5%	-0.3%
COC(=O)C1=C(c2cccc(C#N)c2)C[C@@H]2CC[C@H]1N2C(=O)NCCOc1ccccc1	x	x	-6%	-2.5%
CCc1ccc(OCC(=O)N2CCN(Cc3ccc4c(c3)OCO4)CC2)cc1	3	1%	7%	-5.6%
Cn1c(=O)cc(OCC(=O)N2CCN(C3CCCCC3)CC2)c2ccccc21	6	-1%	-9%	4.2%
COc1ccc(C)cc1NC1=NCCCS1	8	-3%	u	-2.0%
CN1C(=O)N(C)C(=O)C2(Cc3cc(NC(=O)c4ccc(F)cc4)ccc3N3CCCC32)C1=O (configuration not stated)	x	0%	u	u
C[C@]12CCC3C(CC[C@H]4C[C@@H](O)CC[C@]34C)C1[C@H]1CN=N[C@H]1[C@@H]2O (some centres not stated)	x	x	17%	-2.8%
O=C(NCCCn1ccnc1)C(Cl)(Cl)Cl	5	-2%	-15%	-1.8%
C[N+](C)(C)c1ccccc1	-1	-1%	-6%	-2.2%
S=C(NCCc1ccccc1)NCCc1cnc[nH]1	x	-19%	-3%	-1.1%
Cc1cc(N(CCCl)CCCl)ccc1/C=N/N=C(\N)c1cnccn1	x	x	-8%	4.6%
COc1cccc(-c2sc3ccccc3c2-c2ccc(OCCN3CCOCC3)cc2)c1	x	x	-22%	3.1%
CCCc1nnc(NC(=O)CCC(=O)N2CCC3(CC2)OCCO3)s1	2	1%	2%	10%
CC1(C)C(=O)CC[C@@]2(C)C1=CCC1C2CC[C@]2(C)C(=O)CCC12 (some centres not stated)	x	x	-4%	-0.5%
CNC(=O)Oc1ccc2c(c1)C(=O)c1ccccc1CO2	6	-26%	2%	-1.0%
COC(=O)C1=C(c2ccc(F)cc2F)C[C@@H]2CC[C@H]1N2C(=O)NC1Cc2ccccc2C1	x	x	0%	u
COc1ccc(/C=C2/C(=O)NC(=O)N(Cc3ccco3)C2=O)cc1	2	0%	x	x
O=C(NCc1cccnc1)NC1CCCCC1	8	-15%	-16%	-3.5%
CCC1=Nc2cc(C(=O)N3CCC4(CC3)OCCO4)ccc2Sc2ccc(C)cc21	x	6%	-14%	-3.1%
COC(=O)C1=C(c2cc3ccccc3s2)C[C@@H]2CC[C@H]1N2C(=O)NCCS(C)=O (some centres not stated)	x	x	19%	0.4%
C[C@@H]1CC2C3CC=C4C[C@@H](O)CC[C@]4(C)C3CC[C@]2(C)[C@H]1O (some centres not stated)	x	x	-1%	4.3%
COC(=O)C1=C(c2cc3ccccc3o2)C[C@@H]2CC[C@H]1N2C(=O)N1CCCC1	x	x	-3%	-2.0%
CCN1CCN(C(=O)COc2ccc3oc4c(c3c2)CCCC4)CC1	x	x	14%	0.2%
Cc1cccc(OCCn2cccc2/C=C2/C(=O)NC(=O)N(Cc3ccco3)C2=O)c1	0	-18%	u	u
CNC(C(=O)c1ccccc1)C(OC(C)C)c1ccc(Cl)cc1 (configuration not stated)	-14	-2%	-5%	0.4%
CCCCC1C(=O)NC(=S)NC1=O	-3	-10%	x	x
NCCCCCC(=O)OC1N=C(c2ccccc2Cl)c2cc(Br)ccc2NC1=O (configuration not stated)	-1	2%	0%	-1.3%
CN(C)C(=O)Oc1cccc(NC(=O)c2ccccc2C(F)(F)F)c1	2	3%	9%	1.5%

# Arranged by SMILES length (rising): some entries from above.
structure	GLA inh pH 4.5	miR-21 FLuc	Rango dissoc inh	Rango complex inh
COc1ccc(C)cc1NC1=NCCCS1	8	-3%	u	-2.0%
COc1cccc(-c2sc3ccccc3c2-c2ccc(OCCN3CCOCC3)cc2)c1	x	x	-22%	3.1%
Cc1cccc(OCCn2cccc2/C=C2/C(=O)NC(=O)N(Cc3ccco3)C2=O)c1	0	-18%	u	u
